Source: PubChem BioAssay
PAFAH2 inh: PAFAH2 enzyme inhibitors, primary screen, biochemical, fluorescence polarization, human. Platelet-activating factor acetylhydrolase 2, cytoplasmic (Homo sapiens), Q99487. recombinant PAFAH2, FP-rhodamine activity probe. inhibition, % at 3.39 µM. 0.99% of 340,000 active. AID 492956, 2010;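 active = inhibition above the mean over all tested compounds plus 3 SD, cut at about 30% in these data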;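 note: inhibitors block probe labeling of enzyme so polarization drops; 0% = enzyme with DMSO and 100% = wells lacking PAFAH2 protein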
pPAFAH inh: pPAFAH enzyme inhibitors, primary screen, biochemical, fluorescence polarization, human; recombinant pPAFAH, FP-rhodamine probe fluorescence polarization; inhibition, % at 3.39 µM; 1.5% of 330,000 active;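 active = inhibition above the mean inhibition across the screen plus 3 SD, cut at about 25% in these data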;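 note: inhibitors block binding of the rhodamine activity-based probe so polarization drops; 0% = enzyme with DMSO and 100% = wells lacking pPAFAH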
Target sequence (Q13093 whole entry, looked up): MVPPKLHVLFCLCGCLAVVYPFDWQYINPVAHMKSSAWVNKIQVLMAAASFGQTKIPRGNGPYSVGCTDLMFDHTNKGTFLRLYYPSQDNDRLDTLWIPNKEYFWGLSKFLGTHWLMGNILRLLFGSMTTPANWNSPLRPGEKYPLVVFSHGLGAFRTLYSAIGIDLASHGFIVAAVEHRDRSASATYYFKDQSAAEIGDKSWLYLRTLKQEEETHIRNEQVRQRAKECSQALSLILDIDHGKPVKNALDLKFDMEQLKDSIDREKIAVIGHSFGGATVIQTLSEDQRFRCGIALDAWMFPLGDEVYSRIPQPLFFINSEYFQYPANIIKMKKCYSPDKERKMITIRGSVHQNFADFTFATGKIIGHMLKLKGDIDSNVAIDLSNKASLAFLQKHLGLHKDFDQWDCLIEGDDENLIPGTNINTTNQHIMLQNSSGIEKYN
PAFAH1B3 FP inh: PAFAH1B3 enzyme inhibitors, primary screen, biochemical, fluorescence polarization, human; Platelet-activating factor acetylhydrolase IB subunit alpha1 (Homo sapiens), Q15102; recombinant PAFAH1B3, FP-rhodamine probe; 0.28% of 340,000 active; inhibition, % at 3.39 µM;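 active = inhibition above the screen-wide average of all tested compounds plus 3 SD, cut at about 25% in these data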;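 note: 0% = enzyme with DMSO only and 100% = wells lacking PAFAH1B3 protein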
LYPLA2 counter: LYPLA2 inhibitors, primary screen, counter-screen for PME1 inhibitor project, biochemical, fluorescence polarization, FP-Rh probe ABPP | inhibition, % at 5.9 µM | Acyl-protein thioesterase 2 (Homo sapiens), O95372 | AID 2177, 2009 | 0.38% of 320,000 active | recombinant LYPLA2;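 active = inhibition above the screen-wide mean plus 3 SD, limit set per campaign, cut at about 26% in these data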;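 note: 0% = LYPLA2 with DMSO and 100% = wells lacking LYPLA2 enzyme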
Target sequence (O95372 whole entry, looked up): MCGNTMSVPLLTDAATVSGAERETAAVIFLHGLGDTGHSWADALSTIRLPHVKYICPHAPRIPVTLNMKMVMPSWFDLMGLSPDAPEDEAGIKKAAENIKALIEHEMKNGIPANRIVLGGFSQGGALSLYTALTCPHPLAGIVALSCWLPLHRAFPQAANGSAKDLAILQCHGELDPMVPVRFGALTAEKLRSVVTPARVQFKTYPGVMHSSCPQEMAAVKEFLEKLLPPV
LYPLA1 counter: LYPLA1 inhibitors, primary screen, counter-screen for PME1 inhibitor project, biochemical, fluorescence polarization, FP-Rh probe ABPP. Acyl-protein thioesterase 1 (Homo sapiens), O75608. recombinant LYPLA1. inhibition, % at 5.9 µM. 0.16% of 320,000 active. AID 2174, 2009;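 active = inhibition above the mean of all tested compounds plus 3 SD, set per campaign, cut at about 14% in these data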;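 note: inhibitors block serine hydrolase probe labeling of LYPLA1 so polarization falls; 0% = enzyme with DMSO and 100% = wells lacking LYPLA1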
Target sequence (O75608 whole entry, looked up): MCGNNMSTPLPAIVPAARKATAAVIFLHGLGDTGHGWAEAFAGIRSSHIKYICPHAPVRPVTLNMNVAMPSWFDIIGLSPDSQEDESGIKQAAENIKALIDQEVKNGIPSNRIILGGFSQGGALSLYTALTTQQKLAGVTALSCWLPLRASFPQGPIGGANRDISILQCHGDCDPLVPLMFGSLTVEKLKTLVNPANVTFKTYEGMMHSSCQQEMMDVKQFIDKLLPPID
PREPL inhibitor: PREPL enzyme inhibitors, primary screen, biochemical, fluorescence polarization; Prolyl endopeptidase-like (Homo sapiens), Q4J6C6; recombinant PREPL, fluorescence polarization activity-based probe; inhibition, % at 5.96 µM; 0.68% of 320,000 active; AID 2751, 2010; in the data active = inhibition above about 43%;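 note: 0% = enzyme with DMSO and 100% = wells lacking enzyme; many of its hits are not listed in these tables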
GSTO1 counter: inhibitors of recombinant GSTO1, primary screen, counter-screen for RBBP9 inhibitor project, biochemical, fluorescence polarization. activity-based probe fluorescence polarization. Glutathione S-transferase omega-1 (Homo sapiens), P78417. inhibition, % at 5.96 µM. 1.1% of 300,000 active;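 active = inhibition above the campaign mean inhibition plus 3 SD, cut at about 35% in these data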;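 note: 0% = GSTO1-1 with DMSO and 100% = wells lacking GSTO1-1 enzyme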
PAD4 inh: human PAD4 inhibitors, primary screen, biochemical, fluorescence polarization, 1536-well format; Protein-arginine deiminase type-4 (Homo sapiens), Q9UM07; recombinant PAD4, RCA probe fluorescence polarization; inhibition, % at 6.36 µM; 0.41% of 330,000 active;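 active = percent inhibition above a cutoff equal to the mean of all tested compounds plus 3 SD, cut at about 15% in these data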;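 note: 0% = PAD4 with RCA probe and DMSO and 100% = probe without PAD4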
* marks the source's active call; other numbers are inactive results; x = no result given. Some of the compounds tested; the hit share may differ from the screen's.

SMILES	PAFAH2 inh	pPAFAH inh	PAFAH1B3 FP inh	LYPLA2 counter	LYPLA1 counter	PREPL inhibitor	GSTO1 counter	PAD4 inh
N#Cc1cc(S(=O)(=O)c2ccc(Cl)cc2)c(N)[nH]c1=O	0	4	4	-6	-3	-3	1	-3
O=C(CSc1ccc(Cl)cc1)NNC(=O)c1ccncc1	3	x	8	x	x	x	x	x
CC(C)c1ccc(NC(=O)CCCC(=O)NCCc2ccccc2)cc1	1	4	1	1	-2	3	-5	4
Cc1ccc(S(=O)(=O)N2[C@@H](c3cccc(Cl)c3)C(C(=O)O)=CC[C@H]2c2cccc(C)c2)cc1	7	-1	2	-2	0	2	-18	-1
COc1ccc(C2=NOC(C(=O)NCC(C)C)C2)cc1 (stereo unspecified)	-1	3	8	10	7	4	2	-1
CC(C)c1ccc(NC(=O)COc2ccccc2)cc1	-6	1	3	-7	-4	-2	0	0
O=C(O)C1CCCCC1C(=O)NCCc1ccc(Cl)cc1 (stereo unspecified)	12	0	3	5	1	1	-11	0
COc1ccc(N(C)S(=O)(=O)c2ccc(Cl)c(C(=O)NCCc3ccc(Cl)cc3)c2)cc1	-2	9	10	-4	-3	2	7	0
CCOC(=O)c1cnn(-c2nc(OC)cc(OC)n2)c1C(F)(F)F	3	9	0	-3	-4	-4	-2	5
Cc1ccc([C@H]2C(C(=O)O)=CC[C@@H](c3ccc(C)cc3)N2S(=O)(=O)c2ccccc2C)cc1	-2	7	-6	x	x	-2	x	-2
Cc1ccccc1-n1c(=O)c2c(n3cnnc13)-c1ccccc1CC21CCCCC1	-5	4	2	2	-1	-8	0	-2
CC1(C)C(=O)Nc2ccccc2N1C(=O)COC(=O)CSc1ccc(Cl)cc1	5	18	0	5	0	25	x	13
COCCNC(=S)NNC(=O)CSCc1ccc(Cl)cc1Cl	-1	7	3	-3	0	1	10	1
O=C(Nc1nnc(C23CC4CC(CC(C4)C2)C3)s1)c1ccco1	6	6	-2	2	2	18	18	-7
Cc1ccc(-n2c(-c3ccc(Cl)cc3)n[nH]c2=S)cc1	1	x	2	x	x	x	x	x
O=C(O)c1cc(S(=O)(=O)N2CC=C(c3ccccc3)CC2)ccc1O	0	-2	-2	-3	-3	-10	x	-2
O=C(NN1CC(C(=O)OCc2ccc(Cl)cc2Cl)CC1=O)c1ccccc1 (stereo unspecified)	1	x	1	x	x	x	x	x
Cc1ccc(S(=O)(=O)N2CCN(C(=O)CCOc3cc(C)ccc3C)CC2)cc1	15	-2	4	7	1	22	x	-7
O=C(NCc1ccco1)C1(c2ccc(Br)cc2)CCCC1	9	3	-5	4	2	0	16	-1
Cc1ccc(S(=O)(=O)Oc2ccc(C3C4=C(CCCC4=O)OC4=C3C(=O)CCC4)cc2)cc1	-7	2	4	4	2	-5	7	5
O=C1CC(c2ccc(Cl)cc2)n2nc(NS(=O)(=O)c3ccc(F)cc3)nc2N1 (stereo unspecified)	2	0	1	8	3	2	23	1
CC(C)CC(=O)N1CCN(S(=O)(=O)c2ccc(Cl)cc2)CC1	2	0	-3	5	2	-4	-3	-4
CC(C)N1C(=O)CSC1c1ccc(Br)cc1 (stereo unspecified)	1	3	12	6	-3	-2	7	1
CCOC(=O)c1c(NC(=O)Cn2cnc([N+](=O)[O-])n2)sc2c1CCC(C)C2 (stereo unspecified)	13	5	-13	-4	-3	-5	9	-2
Cc1ccc(S(=O)(=O)N2[C@@H](c3ccc(Br)cc3)C(C(=O)O)=CC[C@H]2c2ccc(Cl)cc2)cc1	10	23	-4	x	x	0	x	-6
The list continues.
SMILES	PAFAH2 inh	pPAFAH inh	PAFAH1B3 FP inh	LYPLA2 counter	LYPLA1 counter	PREPL inhibitor	GSTO1 counter	PAD4 inh
O=C(NCCCN1CCCC1=O)C1CCN(S(=O)(=O)c2ccc(Cl)cc2)CC1	2	2	3	8	3	10	x	-2
Cc1ccc(S(=O)(=O)NC(=O)CSc2nc3ccccc3s2)cc1	-3	4	0	-3	-2	1	-4	-4
Cc1ccc(S(=O)(=O)c2ccc(Cl)cc2)cc1S(=O)(=O)N(C)CC(=O)O	-2	-1	2	-7	-2	3	7	-1
Cc1ccc(S(=O)(=O)NCC(=O)N2CCN(S(=O)(=O)c3ccc(Cl)cc3)CC2)cc1C	9	5	1	2	3	0	2	-7
O=C(c1cc(S(=O)(=O)N2CCOCC2)ccc1F)N1CCCc2ccccc21	8	0	5	3	3	1	2	-3
CS(=O)(=O)NCCSCc1ccc(Cl)cc1	0	8	15	7	-7	6	2	-1
CC(C)(C)Cc1nnc(NS(=O)(=O)Cc2ccccc2)s1	-4	5	8	6	6	15	2	-7
CC(=O)Cc1nsc(NC(=O)c2ccc(COc3ccc(C)cc3)o2)n1	-5	1	-5	3	-1	-2	-5	0
Cc1ccc(SCC(=O)Nc2ccccc2N2CCOCC2)cc1	2	3	9	-5	2	18	-9	7
O=C(CSc1ccc(Br)cc1)NCC(c1cccs1)N1CCOCC1 (stereo unspecified)	5	0	9	-3	2	5	1	1
O=C(NCCc1ccc(Cl)cc1)C1CCN(S(=O)(=O)c2cccs2)CC1	-7	1	1	-3	-9	-11	5	2
CC1C/C(=N\Nc2ccc(S(N)(=O)=O)cc2[N+](=O)[O-])CC(C)(C)C1 (stereo unspecified)	-4	6	9	3	3	15	6	0
Cc1ccc(CNC(=O)C(=O)NCCC2CCCCN2S(=O)(=O)c2ccccc2)cc1 (stereo unspecified)	5	2	2	1	0	-9	5	-7
COc1ccc(Cl)cc1C(=O)NNC(=O)c1cccc(S(=O)(=O)N(C)C)c1	3	4	5	7	-2	16	-1	-2
O=C(CCn1nnc2ccccc21)Nc1nnc(COc2ccc(F)cc2)s1	-2	4	7	6	2	-7	8	-2
COc1ccc(Cl)cc1NC(=O)CN(C)C(=O)C12CC3CC(CC(Cl)(C3)C1)C2	1	x	-1	x	x	x	x	x
CCCCC(=O)NC(=S)NNC(=O)c1ccc(Cl)cc1Cl	-3	x	2	x	x	x	x	x
COc1cccc(NC(=O)c2ccc(NS(=O)(=O)c3cccs3)cc2)c1	-10	x	3	x	x	x	x	x
CC(NC(=O)c1ccncc1)c1ccc(Br)cc1 (stereo unspecified)	-1	-2	5	-1	0	8	5	5
CC(C)[C@H](NC(=O)NCCc1ccc(Cl)cc1)C(=O)O	2	-6	5	4	-1	18	4	0
CC1CCCC(NC(=O)c2cccc(N3CCCC3=O)c2)C1C (stereo unspecified)	6	-1	5	0	-3	-1	5	-2
COc1cccc([C@@H]2CC=C(C(=O)O)[C@H](c3ccc(Br)cc3)N2S(=O)(=O)c2ccc(C)cc2)c1	-3	6	-2	x	x	11	x	-3
CC(C)OCCCNC(=O)CCCC(=O)Nc1ccc(OCCc2ccccc2)cc1	5	5	8	-3	0	24	5	1
O=C(NCc1n[nH]c(=S)n1-c1cccc(Cl)c1)c1ccc(S(=O)(=O)N2CCCCC2)cc1	-6	-1	9	4	2	11	-4	2
Cc1ccc(SCC2=NNC(=O)C2)cc1	5	18	5	6	0	-4	42*	9

The list goes on (7 carried over from the part before).
SMILES	PAFAH2 inh	pPAFAH inh	PAFAH1B3 FP inh	LYPLA2 counter	LYPLA1 counter	PREPL inhibitor	GSTO1 counter	PAD4 inh
CC(NC(=O)c1ccncc1)c1ccc(Br)cc1 (stereo unspecified)	-1	-2	5	-1	0	8	5	5
CC(C)[C@H](NC(=O)NCCc1ccc(Cl)cc1)C(=O)O	2	-6	5	4	-1	18	4	0
CC1CCCC(NC(=O)c2cccc(N3CCCC3=O)c2)C1C (stereo unspecified)	6	-1	5	0	-3	-1	5	-2
COc1cccc([C@@H]2CC=C(C(=O)O)[C@H](c3ccc(Br)cc3)N2S(=O)(=O)c2ccc(C)cc2)c1	-3	6	-2	x	x	11	x	-3
CC(C)OCCCNC(=O)CCCC(=O)Nc1ccc(OCCc2ccccc2)cc1	5	5	8	-3	0	24	5	1
O=C(NCc1n[nH]c(=S)n1-c1cccc(Cl)c1)c1ccc(S(=O)(=O)N2CCCCC2)cc1	-6	-1	9	4	2	11	-4	2
Cc1ccc(SCC2=NNC(=O)C2)cc1	5	18	5	6	0	-4	42*	9
O=C(NCC1(c2ccccc2)CCCC1)c1cccc(Br)c1	5	8	1	2	-4	-25	-1	-3
Cc1ccc(Cn2nnc3c(=O)[nH]c(C4CCCN(S(=O)(=O)c5ccccc5)C4)nc32)cc1 (stereo unspecified)	1	-2	6	3	3	-11	12	-3
O=C(c1cccs1)N1CCN(C(=O)C(c2ccccc2)c2ccccc2)CC1	2	-3	1	2	-1	11	11	-9
COc1ccc(C(O)(C2CCCCC2)C(CN2CCOCC2)c2ccccc2)cc1 (stereo unspecified)	-1	-2	2	-5	0	21	-1	-2
O=C(CCNS(=O)(=O)c1ccc(Br)cc1)NCCc1ccccc1	3	-2	6	-2	3	-30	4	-1
N#Cc1ccc(C(c2nnnn2Cc2ccccc2)N2CCCC2)cc1 (stereo unspecified)	-2	2	4	4	-2	-4	7	-1
COCCNC(=O)Cn1cnc2ccc(S(=O)(=O)N3CCC(C)CC3)cc2c1=O	-4	0	-3	0	2	-6	12	0
O=C(CSc1ccccc1C(=O)O)NC12CC3CC(CC(C3)C1)C2	6	1	9	-6	-2	-5	34	2
N#C/C(=C(/O)COC(=O)CSc1ccc(Cl)cc1)c1nc2ccccc2[nH]1	4	19	1	2	1	8	9	-2
CC(C)c1nnc(NC(=O)Cc2ccc(Br)cc2)s1	8	0	0	4	-4	3	2	-6
C=C(c1ccc(O)cc1)c1ccc(O)cc1	-9	-3	0	-5	-7	3	4	2
O=C(CCNC(=O)C1CCN(S(=O)(=O)c2ccc(F)cc2)CC1)NCc1ccccc1	4	0	6	-2	4	2	3	-3
Clc1ccc(SCc2nc3ccccc3[nH]2)cc1	6	-2	2	0	-4	0	-3	-1
Cc1ccc(CN(C)C(=O)c2cccc(S(=O)(=O)N3CCc4ccccc43)c2)cc1	0	0	4	x	x	-2	x	3

Part of the list above in order of length of the SMILES, rising.
SMILES	PAFAH2 inh	pPAFAH inh	PAFAH1B3 FP inh	LYPLA2 counter	LYPLA1 counter	PREPL inhibitor	GSTO1 counter	PAD4 inh
O=C(CCNS(=O)(=O)c1ccc(Br)cc1)NCCc1ccccc1	3	-2	6	-2	3	-30	4	-1
COCCNC(=O)Cn1cnc2ccc(S(=O)(=O)N3CCC(C)CC3)cc2c1=O	-4	0	-3	0	2	-6	12	0
O=C(CCNC(=O)C1CCN(S(=O)(=O)c2ccc(F)cc2)CC1)NCc1ccccc1	4	0	6	-2	4	2	3	-3
